TAR Tat displ: HIV-1 TAR-Tat binding disruption | actives 0.6% (n = 100,000) | z-score (no concentration beside the values) | HIV-1 TAR RNA, Tat peptide displacement FRET; active compounds read high | AID 1259389;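 also: score is relative to mean and SD of negative controls; some compounds called inactive have numbers as strong as hits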
CDC25B CDK2 inh: human CDC25B-CDK2/CyclinA binding inhibition; P30305+P24941; HTRF CDC25B-CDK2/CyclinA binding, anti-His/anti-Flag; active compounds read high; z-score (no concentration beside the values); actives 0.72% (n = 94,000); AID 1259370;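 also: score is relative to mean and SD of negative controls; strong numbers were not always called active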
* marks the source's active call; other numbers are inactive results; / = no result given.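 The calls were made as follows: active = z-score from 3 up in half or more of its runs; inactive = the rest.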

SMILES | TAR Tat displ | CDC25B CDK2 inh
CCOC(=O)c1c(C)oc(N)c1C#N | 0.4 | -0.76
CCOC(=O)O/N=C(\N)c1ccc(Cl)cc1 | / | 0.48
Cc1ccc2nc(C3=C(O)CN(c4cccc(Cl)c4)C3=N)[nH]c2c1 | 1.82 | 0.26
O=c1oc2c(-c3cccc(F)c3)cc(O)cc2s1 | -1.16 | -3.15
COc1ccc(C(=O)CC(=O)c2ccc(OC)c(OC)c2)c(O)c1 | 0.71 | -0.24
COc1ccc(-n2nc3c(c2NC(=O)C(=O)N2CCN(C)CC2)CSC3)cc1 | 1.84 | /
CCc1nc2nc(C)cc(NCc3ccc4c(c3)OCO4)n2n1 | 0.49 | /
CN1CCN(c2sc(S(C)(=O)=O)nc2S(=O)(=O)c2ccc(Cl)cc2)CC1 | 1.84 | -1.03
O=C(O)c1ncn(-c2ccccc2)n1 | 0.08 | -0.39
CCc1nnc(NC(=O)Cc2coc3ccc(C)cc23)s1 | 0.87 | -2.24
CC(C)c1ccc(C2C(C(=O)c3cccs3)=C(O)C(=O)N2c2nncs2)cc1 (stereo unspecified) | / | -0.96
O=C(CCC(=O)N1CCOc2ccccc21)NCCCN1CCN(C2CCCCC2)CC1 | -1.83 | -1.38
CCc1ccc(C(O)(CC)C(CN2CCOCC2)c2ccc(Cl)cc2)cc1 (stereo unspecified) | -0.37 | 0.52
CCSc1ncc(CO)n1Cc1ccc(OC)cc1 | 1.86 | /
CN1C(C(=O)Nc2ccc3c(c2)OCO3)=CC(c2cccs2)=NS1(=O)=O | 2.29 | -0.5
COC(=O)c1scc(C)c1NC(=O)CN1CCCCC1 | / | -1.97
NCCCCCC(=O)O | 2.04 | 0.78
Nc1nc(NCc2ccco2)nn1-c1ccccc1 | / | 1.25
COc1ccc(C2CC(=O)C3=C(C2)Nc2ccccc2NC3c2cc3c(cc2Cl)OCO3)cc1 (stereo unspecified) | 0.97 | -1.76
O=C1Nc2c(C(=O)O)cccc2C1=O | 21.4* | 1.4
Cc1cccc(-c2cc(C(=O)O)c3c(-c4ccccc4)[nH]nc3n2)c1 | 2.88 | /
Cc1ccc(C(=O)N2CCN(S(C)(=O)=O)C2)cc1 | 1.28 | -2.01
CCc1nnc2sc(-c3ccc(C)c(NC(=O)C(C)(C)C)c3)nn12 | -0.24 | -1.5
O=C(CN1c2ccccc2NC2=C(C(=O)CCC2)C1c1cccs1)Nc1ccccc1 (stereo unspecified) | 0.18 | /
Cc1cn2c(=O)cc(COC(=O)COc3ccccc3)nc2s1 | -0.17 | /
CN1CCc2c(sc(-n3cccc3)c2CNC(=O)Nc2cc(F)ccc2F)C1 | -7.16 | /
COC(=O)c1ccc(COc2ccc3c(=O)c(Oc4ccccc4Cl)coc3c2)cc1 | 0.19 | 0.3
CC(C)(C)C1(C)OC(O)(C(F)(F)F)CC1=O (stereo unspecified) | / | -1.21
NC(=O)c1cc(S(=O)(=O)NCCCN2CCCc3ccccc32)cs1 | -0.78 | /
CC(C)CCNC(=O)CSc1nc2ncccc2o1 | 0.42 | /
O=C(CN1c2ccc(Br)cc2-c2ccccc2S1(=O)=O)NC1CCCC1 | 0.86 | 0.5
CCn1nc(C)c(CNC(=O)Nc2cccc(Br)c2)c1C | 0.22 | /
Cc1[nH]c2ccccc2c1C(=O)C(=O)Nc1ccc2c(c1)OCO2 | 1.57 | -1.71
Cc1ccccc1CN[C@H]1CS(=O)(=O)C[C@@H]1S(=O)(=O)c1ccc(Cl)cc1 | 1.92 | -0.35
COc1ccc(-c2cc(C)no2)cc1S(=O)(=O)NCc1ccc(Br)cc1 | 1.27 | /
O=c1c(Nc2ccc(F)cc2)c(-c2ccc3c(c2)CCCC3)c1=O | 0.45 | /
Cc1ccc(-n2nc3c(c2NC(=O)c2ccccc2Br)CSC3)cc1 | / | -0.2
CN(CC(=O)NCc1ccco1)S(=O)(=O)c1ccc(-c2ccc(=O)[nH]n2)s1 | -0.83 | /
COc1ccc(CN2CCN(Cc3ccco3)CC2)cc1OC | -2.87 | -0.73
O=C(NCCCN1CCOCC1)NCc1cccc2ccccc12 | / | -0.51
O=C(Nc1ccc(F)cc1)c1nn(-c2cccc(Cl)c2)ccc1=O | -0.41 | 0.33
O=C(Cn1nc(-c2ccc3c(c2)OCCO3)ccc1=O)NCc1ccc2c(c1)OCO2 | 0.19 | 0.35
CC[C@@H](C(=O)C(C)[C@@H](O)[C@H](C)CCc1ccc(C)c(O)c1C(=O)O)C1OC(CC)(C2CC[C@](O)(CC)[C@H](C)O2)C[C@@H]1C (stereo partly specified) | -0.18 | /
Cc1nc(Br)sc1C(=O)O | / | -1.93
CSc1nc(=O)c2c(n1C)NC(=O)CC2c1cccc(F)c1F (stereo unspecified) | 0.45 | -0.08
CC1CCCN(c2csc3ccc(Cl)cc3c2=O)C1 (stereo unspecified) | 1.08 | /
CCCCN1CC(c2nc3ccccc3n2Cc2c(F)cccc2Cl)CC1=O (stereo unspecified) | 1.86 | -2.51
CCCCN1C(=O)N(C)C2NC(=O)NC21 (stereo unspecified) | 0.66 | -0.18
Cc1[nH]c2ccccc2c1C1(O)C(=O)N(Cc2cccs2)c2ccc(Br)cc21 (stereo unspecified) | 0.81 | 1.66
CCOc1ccc2cc(/C=N/Nc3nc(-c4ccccc4)c4cc(Cl)ccc4n3)c(=O)[nH]c2c1 | / | -1.55
CC1CCCCC1NS(=O)(=O)c1ccc2oc(=O)c3ncn(C)c3c2c1 (stereo unspecified) | 0.27 | /
O=S1(=O)C[C@H](NCCc2ccc(Cl)cc2)[C@@H](S(=O)(=O)c2ccccc2)C1 | -0.23 | -1.48
Cc1cc2n(n1)CCC(=O)N2CCCC(=O)NCc1ccco1 | 1.34 | /
COCCOC(=O)C1=C(C)NC(=S)NC1c1ccc(Cl)cc1 (stereo unspecified) | / | -1.37
Cc1cc(C)c2c(-n3cccc3)c(C(=O)N3CCN(C4CCCCC4)CC3)sc2n1 | -1.26 | -1.71
CC(C)(C)c1ccc(-c2nn3c(Cn4nnc5ccccc54)nnc3s2)cc1 | 0.97 | -1.64
Cc1ccc(Cn2c(CCCO)nc3ccccc32)cc1 | 0.17 | -0.77
O=S(=O)(Nc1cccc(-c2ccc(N3CCCCC3)nn2)c1)c1cccc(Cl)c1 | 1.16 | /
CC1Cc2cc(S(=O)(=O)N3CCC(C(=O)NCC4CCCO4)CC3)ccc2N1C(=O)C1CCC1 (stereo unspecified) | 0.75 | /
Cc1ccc(C(=O)CC2(O)C(=O)N(Cc3ccccc3)c3ccc(Cl)cc32)cc1 (stereo unspecified) | 1.34 | -0.35
Continuation:
SMILES | TAR Tat displ | CDC25B CDK2 inh
COc1ccc(C2CC(=O)c3cnc4[nH]n(-c5ccccc5)c(=O)c4c3C2)cc1 (stereo unspecified) | -0.76 | -1.3
COC(=O)c1sccc1NC(=O)NCc1c(-n2cccc2)sc2c1CCN(C)C2 | -6.73 | 2.44
Cn1cc(S(=O)(=O)N2CCOCC2)cc1C(=O)N1CCOCC1 | 1.36 | /
NNC(=O)c1cnn(-c2ccc(Cl)cc2)c1C(F)(F)F | / | -0.32
Clc1ccccc1-c1nnc2sc(-c3cccnc3)nn12 | / | -1.37
Cn1c(=O)c2c(-c3ccccc3Br)n(C(C)(C)C)cc2n(C)c1=O | 1.65 | -1.37
Cc1cc(NC2CCCCC2)ncn1 | -0.33 | -0.09
COc1ccc(OC)c(S(=O)(=O)NCC(c2ccc(N(C)C)cc2)N2CCOCC2)c1 (stereo unspecified) | 2.92 | /
COCCNC(=O)N1CCc2cc(S(=O)(=O)N3CCCc4ccccc43)ccc21 | 0.09 | /
Cc1ccc(SCc2cc(=O)n(-c3nc4ccccc4[nH]3)[nH]2)cc1 | 0.53 | /
O=C(NCC1CCCO1)c1nnc(Cc2ccc(F)cc2)o1 (stereo unspecified) | -0.51 | 0.11
Cc1nn2c(=O)cc(COc3ccc(Cl)c(C)c3)nc2s1 | 0.22 | -1.25
O=S(=O)(NCc1cn2ccccc2n1)c1ccccc1F | 0.47 | -3.58
CCOC(=O)N1CCN(C(=O)c2cn(CCOC)c(=O)c3c2c2ccccc2n3C)CC1 | -0.5 | -1.23
O=C(NCc1cccs1)c1cnn2c3c(cnc12)CCCCCC3 | -0.13 | /
Cc1ccsc1CCNC(=O)C1CCC(CNc2c(N3CCC(C)CC3)c(=O)c2=O)CC1 (stereo unspecified) | / | -0.85
CNC(=O)Nc1ccc2nc(C)oc2c1 | / | 0.41
CCc1nnc2c(Nc3ccc(OC)c(Cl)c3)nc3ccccc3n12 | 0.86 | -1.32
CCOC(=O)c1c(S(=O)(=O)N2CCN(CC)CC2)c(C)n(C)c1C | 1.88 | /
Cc1ccc(C)c(CSc2nncn3c2cc2oc(C)cc23)c1 | -6.39 | /
O=C(Nc1ccc(Br)cc1)C1Cc2ccccc2CN1S(=O)(=O)c1cccs1 (stereo unspecified) | 1.21 | /
C=CCNC(=O)c1ccc2snnc2c1 | 0.7 | -0.87
COC(C)(C)C#CC(=O)c1cccc2ccccc12 | / | -1.38
CC1=C(c2cccc(Cl)c2)S(=O)(=O)N=C1Nc1cc(C)ccc1C | 0.51 | -2.82
O=S(=O)(c1cccc2nsnc12)N1CCN(Cc2noc3ccccc23)CC1 | 2.36 | /
CC(C)CNC(=O)CN1c2ccccc2NC2=C(C(=O)CC(C)(C)C2)C1c1cccs1 (stereo unspecified) | 0.73 | /
O=C(NCCN1CCOCC1)c1ccc2c(c1)N(Cc1ccccc1)CCS2 | / | -2.4
Cc1nc(S(=O)(=O)N(C)Cc2ccccc2)c(C#N)c(C)c1Cl | / | -1.07
O=c1c2c(nc3nc(NCc4ccc(F)cc4)[nH]n13)CCC2 | -0.18 | -0.43
CC1CCN(S(=O)(=O)c2ccc3c(c2)N(CC(=O)NC2CCCCC2C)C(=O)CS3)CC1 (stereo unspecified) | 2.2 | -0.08
O=C(O)c1cc(-c2cn[nH]c2-c2ccccc2)nc2ccc3ccccc3c12 | / | 21.9*
Cc1cc(C)c2oc(C(=O)N(Cc3cccs3)C3CCS(=O)(=O)C3)cc(=O)c2c1 (stereo unspecified) | 0.22 | -1.67
Cc1cccc(CN[C@H]2CS(=O)(=O)C[C@@H]2S(=O)(=O)c2ccc(F)cc2)c1 | -1.18 | -1.9
COc1cccc(C2N3CC4(C)CN2CC(c2ccccc2)(C3)C4=O)c1O (stereo unspecified) | 4.24* | -2.24
CCOc1ccc(N(C(=O)C(C)C)S(=O)(=O)c2ccc3c(c2)n(C)c(=O)n3C)cc1 | 0.78 | 0.2
CC1CCN(c2ncc3c(n2)CCN(Cc2ccccc2Cl)C3)CC1 | 0.58 | /
CN1CCN(CCNC(=O)CCCN2C(=O)c3cccnc3Sc3ccccc32)CC1 | 0.35 | /
Clc1ccccc1CSc1nncn2c1cc1sccc12 | 4.41 | /
NC(=O)C1CCN(C(=O)c2nc3ccccc3nc2Cl)CC1 | 0.29 | 0.44

Entries listed so far that have a thiophene ring, fused or not:
SMILES | TAR Tat displ | CDC25B CDK2 inh
CC(C)c1ccc(C2C(C(=O)c3cccs3)=C(O)C(=O)N2c2nncs2)cc1 (stereo unspecified) | / | -0.96
CN1C(C(=O)Nc2ccc3c(c2)OCO3)=CC(c2cccs2)=NS1(=O)=O | 2.29 | -0.5
COC(=O)c1scc(C)c1NC(=O)CN1CCCCC1 | / | -1.97
O=C(CN1c2ccccc2NC2=C(C(=O)CCC2)C1c1cccs1)Nc1ccccc1 (stereo unspecified) | 0.18 | /
CN1CCc2c(sc(-n3cccc3)c2CNC(=O)Nc2cc(F)ccc2F)C1 | -7.16 | /
NC(=O)c1cc(S(=O)(=O)NCCCN2CCCc3ccccc32)cs1 | -0.78 | /
CN(CC(=O)NCc1ccco1)S(=O)(=O)c1ccc(-c2ccc(=O)[nH]n2)s1 | -0.83 | /
Cc1[nH]c2ccccc2c1C1(O)C(=O)N(Cc2cccs2)c2ccc(Br)cc21 (stereo unspecified) | 0.81 | 1.66
Cc1cc(C)c2c(-n3cccc3)c(C(=O)N3CCN(C4CCCCC4)CC3)sc2n1 | -1.26 | -1.71
COC(=O)c1sccc1NC(=O)NCc1c(-n2cccc2)sc2c1CCN(C)C2 | -6.73 | 2.44
O=C(NCc1cccs1)c1cnn2c3c(cnc12)CCCCCC3 | -0.13 | /
Cc1ccsc1CCNC(=O)C1CCC(CNc2c(N3CCC(C)CC3)c(=O)c2=O)CC1 (stereo unspecified) | / | -0.85
O=C(Nc1ccc(Br)cc1)C1Cc2ccccc2CN1S(=O)(=O)c1cccs1 (stereo unspecified) | 1.21 | /
CC(C)CNC(=O)CN1c2ccccc2NC2=C(C(=O)CC(C)(C)C2)C1c1cccs1 (stereo unspecified) | 0.73 | /
Cc1cc(C)c2oc(C(=O)N(Cc3cccs3)C3CCS(=O)(=O)C3)cc(=O)c2c1 (stereo unspecified) | 0.22 | -1.67
Clc1ccccc1CSc1nncn2c1cc1sccc12 | 4.41 | /

Screens deposited in PubChem BioAssay by Center for Chemical Genomics, University of Michigan.
